Choline anaer gr: blocks anaerobic gram-negative growth on choline | Gram-negative bacterium anaerobic choline minimal medium, absorbance growth; active compounds read low; many inactives read as strong as hits in the columns shown | calls only | 0.2% of 55,000 active;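 active means growth z-score on choline under -2 at 7 or 20 h with little or no fall on glycerol, limits in tiers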;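 further: stock transfer was 300 nL into about 50 µL; the organism is E. coli; final concentration not given here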
Choline anaer gr early: second read-out of Choline anaer gr, no call of its own (marks repeat the call); z-score; measured here: choline growth z-score, timepoint 1;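 score of optical density at 7 h as mean of two plates; lower means less growth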
* marks the source's active call; other numbers are inactive results; i = inactive; & = joins results of further samples.

The line under a structure holds: Choline anaer gr, Choline anaer gr early
c1coc(-c2nnc(-c3cc4ccccc4o3)o2)c1
  i, -2.13
COc1ccc(-c2ccc(=O)[nH]n2)cc1OC
  i, -0.48
CC1CCCN(Cc2cn3c(-c4cccc(Br)c4)nnc3s2)C1 (stereo not given)
  i, -0.18
O=c1n(Cc2ccccc2Cl)nc2c(S(=O)(=O)N3CCCC3)cccn12
  i, -0.66
Cc1nn(C(=O)C(C)(C)C)c(C)c1S(=O)(=O)N1CCCC1
  i, -0.52
COc1ccccc1-c1c(C)nn2c(SCC(=O)NC3CCCC3)cc(C)nc12
  i, -1.37
Cc1nn(-c2ccc3nnc(C)n3n2)c2c1C(c1ccccc1OCc1ccccc1)CC(=O)N2 (stereo not given)
  i, -0.37
CC(C)c1nc(CN2CCC(N3CCCCC3)CC2)cc(=O)[nH]1
  i, 0.13
CC(C)Cn1c(=O)c(-c2ccc(C(=O)NCCCN3CCN(C)CC3)cc2)nc2ccccc21
  i, -0.38
C=CCNC(=O)c1ccc(NC(=O)c2nsc3ccccc23)cc1
  i, -1.04
Cn1c(=O)c2sccc2n2c(SCc3ccccc3)nnc12
  i, -0.05
CC(=O)Nc1cc(C(=O)N2CCN(c3ccccn3)CC2)ccc1Sc1ccc(C)cc1
  i, 0.11
CCn1c(=O)c(SCC(=O)OC)nc2cccnc21
  i, 0.03
COc1ccc(C2N3CC(C)(C)CN23)cc1OC (stereo not given)
  i, -1.65
Cc1ccc(-c2noc(CCC(=O)Nc3nccs3)n2)c(=O)n1C(C)C
  i, -0.56
Cc1ccc(CSc2nc3ccccc3n3c(C)nnc23)cc1
  i, -1.1
Cc1cccc(NC(=O)Cn2c(=O)n(Cc3nc(C)no3)c(=O)c3ccccc32)c1
  i, 0.19
Cc1nccn1Cc1noc(CC2CCCCC2)n1
  i, -0.5
CCOC(=O)CNC(=O)CSc1nnc(NC(=O)Nc2ccc(F)cc2)s1
  i, 0.51
Cc1ncc(-c2ccc(S(=O)(=O)NCc3ccco3)s2)o1
  i, -1.44
Cc1ccc(NC(=O)N2CCC(CN3CCCCC3)CC2)cc1C
  i, -1.57
O=C(Cc1ccccc1Cl)NC(c1ccccc1)c1nnc(-c2ccccc2)o1 (stereo not given)
  i, -0.23
Cc1ccc(-c2nn3c(=O)cc(CN4CCN(C(=O)Nc5ccc(C)c(Cl)c5)CC4)nc3s2)cc1
  i, 0.82
C=CCNC(=O)c1snc(C(=O)NC(C)C)c1N
  i, -0.74
CC1(C(=O)O)CC(=O)N=C2C=CC=CN21 (stereo not given)
  i, -1.35
CCOC(=O)CNC(=O)Nc1c(-c2ccc(F)cc2)[nH]c2ccccc12
  i, 0.02
Fc1ccc(-c2ccc(CNc3ncn[nH]3)o2)cc1Cl
  i, 0.02
COc1cccc(Cn2cnc3oc(C)c(C)c3c2=O)c1
  i, -0.44
O=C(CC1CCCC1)N1CCCC(c2nc3c(nnn3Cc3ccccc3)c(=O)[nH]2)C1 (stereo not given)
  i, -0.09
Cc1ccc(NC(=O)c2nnc(CCCC(=O)NCCc3c(C)noc3C)s2)cc1
  i, -0.68

Brought forward from above: seven compounds; new compounds follow.
The line under a structure holds: Choline anaer gr, Choline anaer gr early
C=CCNC(=O)c1snc(C(=O)NC(C)C)c1N
  i, -0.74
CC1(C(=O)O)CC(=O)N=C2C=CC=CN21 (stereo not given)
  i, -1.35
CCOC(=O)CNC(=O)Nc1c(-c2ccc(F)cc2)[nH]c2ccccc12
  i, 0.02
Fc1ccc(-c2ccc(CNc3ncn[nH]3)o2)cc1Cl
  i, 0.02
COc1cccc(Cn2cnc3oc(C)c(C)c3c2=O)c1
  i, -0.44
O=C(CC1CCCC1)N1CCCC(c2nc3c(nnn3Cc3ccccc3)c(=O)[nH]2)C1 (stereo not given)
  i, -0.09
Cc1ccc(NC(=O)c2nnc(CCCC(=O)NCCc3c(C)noc3C)s2)cc1
  i, -0.68
Cc1cc(C)cc(NC(=O)N2CCC3(CC2)CC(=O)c2ccccc2O3)c1
  i, -1.1
Cc1cccc2cc(CN(c3ccccc3)S(C)(=O)=O)c(=O)[nH]c12
  i, -0.29
Cc1nc(Nc2ccc(NC(=O)Nc3ccc4c(c3)OCCO4)cc2)cc(N2CCOCC2)n1
  i, -0.42
O=C(Cc1ccccc1)NCCc1nc(-c2ccccc2)n[nH]1
  i, -1.19
CN1C(=O)c2cc(C(=O)N3CCN(C4CCCCC4)CC3)nn2CC1(C)C(=O)NC1CCCCC1 (stereo not given)
  i, 0.39
CCCC(=O)Nc1ccc(Nc2cc(C)nc(NCC)n2)cc1
  i, -0.55
Cn1nnc2c(Nc3ccc4c(c3)OCO4)ncnc21
  i, 0.4
Cc1ccccc1CN1C(=O)c2ccc(-c3ccccc3)n2CC1(C)C(=O)NC1CCCC1 (stereo not given)
  i, 0.12
Cn1c(=O)c(-c2noc(CCC(=O)N3CCOCC3)n2)nn(-c2ccc(F)cc2)c1=O
  i, -0.37
CCN1CCN(C(=O)c2noc3c2CCCCC3)CC1
  i, -2.74
CN1C(=O)Cc2cc(S(=O)(=O)N3CCN(c4cccc(Cl)c4)CC3)ccc21
  i, -0.85
CCC1CCCCN1S(=O)(=O)c1cc(-c2ccc(=O)[nH]n2)cs1 (stereo not given)
  i, -0.56
O=C(O)c1cccn2c(=O)c3cc(Cl)ccc3nc12
  i, -1.22
CCCNC(=O)c1sc(-n2[nH]c(C)c(Cc3ccc(C)cc3)c2=O)nc1C
  i, 0.68
CC1(C)CC(=O)c2c(O)cc(OCC(=O)O)cc2O1
  i, 0.43
Cn1c(=O)oc2cc(S(=O)(=O)N3CCC4(CC3)Nc3cc(F)ccc3-n3cccc34)ccc21
  i, 0.11
COc1ccccc1NC(=O)N1CCC2(CC1)Nc1ccccc1-n1cccc12
  i, -0.82
C=CCn1cnc2c(cnn2-c2ccc(Cl)cc2)c1=O
  i, 0.66
CS(=O)(=O)Nc1ccc2nc(N3CCN(c4ccc(F)cc4)CC3)cc(C(=O)O)c2c1
  i, -0.61
O=C(NCC1CCCO1)c1ccc(N2C(=O)CCS2(=O)=O)cc1Cl (stereo not given)
  i, 0.13
Cc1c(Cl)cccc1NC(=O)Cn1c(=O)n(-c2ccc(CC(=O)NC3CC3)cc2)c(=O)c2ccccc21
  i, -1.39
CCCCCCCCCCCCC(=O)N[C@H]1CCOC1=O
  i, 0.4
Cc1cc(C)c2nc(C)cc(C(=O)O)c2c1
  i, -1.01
Cc1nonc1NC(=O)c1ccccc1Cl
  i, -0.46
CN(CCNc1ncnc2onc(-c3cc(F)cc(F)c3)c12)Cc1ccccc1
  i, -0.5
COc1ccc(C2CC(=O)C3=C(C2)Nc2onc(C)c2C3c2ccc(OC)cc2)cc1 (stereo not given)
  i, -0.54
O=C(Nc1ccc2c(c1)OCCO2)Nc1ccc2[nH]c(=O)oc2c1
  i, 1.18
Cc1sc(NC(=O)c2ccccc2)c(C(Nc2ccccn2)c2ccsc2)c1C (stereo not given)
  i, -1.39
Cn1c(=O)n(C)c2cc(NC(=O)CN3C(=O)c4ccccc4S3(=O)=O)ccc21
  i, 0.96
CCCCCCC(=O)Nc1cc2nc3[nH]c(=O)n(C)c(=O)c3nc2cc1C
  i, -0.34
O=c1c2cn[nH]c2nc(SCc2nc(-c3cccc(Br)c3)no2)n1-c1ccccc1
  i, -0.08
Cc1nc(CNC(=O)[C@H]2CSCN2C(=O)Nc2cccc(Cl)c2)cs1
  i, -2.11
Cc1nn(C)c2nc(OCC(=O)NCCC(C)C)cc(C(F)(F)F)c12
  i, 0.31
CN1c2ccc(Cl)cc2C(=O)NC12CCN(C(=O)Nc1ccc3c(c1)OCCO3)CC2
  i, 0.07
O=c1[nH]c2ccc(S(=O)(=O)Nc3ccc(F)cc3F)cc2[nH]1
  i, -0.34
O=C1C(=O)c2ccccc2C(O)=C1C1CCC(c2ccc(Cl)cc2)CC1 (stereo not given)
  i, 0.91&0.24&0.45
O=C(NCc1c(-c2ccccc2)nc2n1CCS2)c1cccc(F)c1
  i, 0.21
O=C(NCCc1c[nH]c2ccc(Cl)cc12)C1CCCN(c2nc3ncccc3n3cccc23)C1 (stereo not given)
  i, 0.38
O=C(Cn1c(=O)[nH]c2c(-c3ccccc3)c[nH]c2c1=O)NCc1ccccn1
  i, 0.67
O=C(CN1C(=O)C2CCCN2C(=O)c2cc(F)ccc21)NCCN1CCCCC1 (stereo not given)
  i, -0.21
c1ccc(CCCNc2nn3nnnc3c3ccccc23)cc1
  i, -0.02
O=C1CCCc2cc(S(=O)(=O)N3CCCC3C(=O)N3CCN(c4ccccc4)CC3)ccc2N1 (stereo not given)
  i, 0.17
Oc1ccc(-c2nc(-c3ccc(F)cc3)c(-c3ccncc3)[nH]2)cc1
  i, 1.05&0.93&1.46
CCOC(=O)c1cc2n(n1)CC(C)(C(=O)NC1CCCCC1)N(c1cc(C)ccc1C)C2=O (stereo not given)
  i, -0.25
COc1ccc(OC)c(CNC(=O)c2ccc(Oc3ccnc(-c4ccc(F)cc4)n3)cc2)c1
  i, 1.42
Cc1cc(N2CCCC2)nc(N2CCN(S(C)(=O)=O)CC2)n1
  i, -1.01
CN(C)S(=O)(=O)N(CC(=O)NC1CCS(=O)(=O)C1)c1ccccc1 (stereo not given)
  i, 0.97
Cc1cc2nc3sc(C(=O)N4CCN(c5ccccn5)CC4)cc(=O)n3c2cc1C
  i, 2.07
CCCc1nnc2n1NC(c1ccc(CC)cc1)C(C(=O)Nc1ccc(C)c(C)c1)S2 (stereo not given)
  i, -0.36
O=C(Nc1ccc2oc(-c3ccccc3)nc2c1)c1cccc(-n2cnnc2)n1
  i, 0.03
COc1ccc(Cl)cc1-c1noc(-c2cccnc2)n1
  i, -0.25
Cn1c(=O)c2c(C(=O)NCCCN3CCCC3)cc(=O)n(C)c2n(C)c1=O
  i, -0.32
Cc1ccc(C)c(C(=O)Cn2c(=O)n3nc(-c4ccccc4)nc3c3ccccc32)c1
  i, 0.3
CCc1ccccc1N(CC)C(=O)COc1cc(=O)n(CC)c2ccccc12
  i, 1.35
CCOC(=O)CNC(=O)N1CCCN(c2ccc(=O)n(-c3ccccc3)n2)CC1
  i, 0.81
CCC1NC(=O)c2cc(S(N)(=O)=O)c(Cl)cc2N1 (stereo not given)
  i, -0.05
O=C(CSc1nnc(-c2cccnc2)o1)NCc1ccccc1Br
  i, 0.65
COC(=O)CNC(=O)N1CCCCCC1c1ccc(C)s1 (stereo not given)
  i, -0.22
O=C(NCc1ccc(F)cc1)c1ccc(Oc2ccnc(-c3cccc(F)c3)n2)cc1
  i, 0.87
Cc1ccc2[nH]cc(CCNC(=O)CCn3c(=O)c(C)nc4ccccc43)c2c1
  i, -1.31

In a second layout: results already given.
Choline anaer gr	Choline anaer gr early	Molecule
i	1.42	COc1ccc(OC)c(CNC(=O)c2ccc(Oc3ccnc(-c4ccc(F)cc4)n3)cc2)c1
i	-0.05	CCC1NC(=O)c2cc(S(N)(=O)=O)c(Cl)cc2N1 (stereo not given)

More entries follow:
The line under a structure holds: Choline anaer gr, Choline anaer gr early
Cc1c(Cl)cccc1NC(=O)N1CCN(Cc2ccc3nccnc3c2)CC1
  i, 0.46
Cc1ccc2c(c1)OCC(=O)N2CC(=O)O
  i, -1.54
CCOC(=O)c1c(-c2ccc(Cl)cc2)csc1NC(=O)c1sc(C)nc1C
  i, -0.37
NCCCCCCCCCCN
  i, 0.76
O=C(CSc1nccn2nc(-c3ccc(Cl)cc3)cc12)NC1CCCCC1
  i, -0.42
Cc1ccc(C)c(N2CCN(S(=O)(=O)c3ccc4c(c3)CC(C)N4C(=O)C3CC3)CC2)c1 (stereo not given)
  i, 0.01
O=C(Nc1ccc2c(c1)OCO2)N1CCN(c2nc3ccccc3n3cccc23)CC1
  i, 0.35
O=C(Nc1ccc(Br)cc1)C1CCCN1S(=O)(=O)c1ccc(F)cc1 (stereo not given)
  i, -0.73
O=c1cc(CN2CCOCC2)nc2nc(NCc3ccccc3Cl)[nH]n12
  i, -0.25
Cc1c(Cl)cccc1NC(=O)Nc1cccc(OCc2cc(=O)n3ccccc3n2)c1
  i, 0.47
COCCCNC(=O)c1ccc(Cn2c(SCc3cccc(OC)c3)nc3ccncc32)cc1
  i, 0.56
COc1cccc(-c2noc(CSc3ccc(-c4ccccc4F)nn3)n2)c1
  i, 1.51
COc1ccc(S(=O)(=O)N2CCc3cc4cc(C)ccc4nc32)cc1OC
  i, -0.68
Cc1nn(CC(=O)NC2CCN(Cc3ccccc3)CC2)c(=O)c2noc(C)c12
  i, -1.03
COc1ccc(-c2noc(N3CCC(C(=O)N4CCN(C5CCCCC5)CC4)CC3)n2)cc1OC
  i, -0.65
CCCCCNC(=O)c1cn(C)nc1S(=O)(=O)N1CCSCC1
  i, -0.03
Cc1ccccc1-c1nc2scc(CCNC(=O)CN3C(=O)c4ccccc4C3=O)n2n1
  i, 0.37
Cn1cc(S(=O)(=O)N2CCCC2)cc1C(=O)N1CCn2c1nc1ccccc12
  i, -1.17
CCOC(=O)CNC(=O)N1CCC(n2nnc3ccccc3c2=O)CC1
  i, 0.56
COc1ccc(S(=O)(=O)N2CCN(c3ccccc3)CC2)cc1-c1noc(C)n1
  i, 0.24
C=CCn1c(=O)c(C(=O)Nc2cccc(C)c2)c(O)c2ccccc21
  i, 1.36
O=C(Nc1ccc(Br)cc1)c1cnn(-c2ccccc2)c1
  i, -1.39
CCn1c(C(=O)O)c(CC(=O)Nc2cccc(Cl)c2)c2ccccc21
  i, 0.56
O=C(NC1CCCCC1)c1ccc(-c2ccc(F)cc2)nc1
  i, -0.11
Cc1ccc(-c2nn(-c3ccccc3)cc2CCC(=O)NC2CCCC2)cc1
  i, 0.88
CC(C)CCNC(=O)CSc1nnc2n(CCC(=O)NCC(C)C)c(=O)c3ccccc3n12
  i, 1.07
CCCc1ccc(OCc2nc(-c3ccc(NC(=O)Cc4ccccc4OC)cc3)no2)cc1
  i, 1.44
Cc1cccc(C2CCCN2S(C)(=O)=O)c1 (stereo not given)
  i, -0.3

Source: PubChem BioAssay

The list is partial, so the mix of outcomes need not match the whole.
